Six1-Eya2 blk = blocks human Six1 binding to Eya2. AlphaScreen GST-Six1/His-Eya2 binding, biochemical; stronger effect = lower value; control for the full effect not named in the record. activity change, % (concentration not given with the values). hit rate 0.56% among 360,000; in the data active = activity change below about -65%; inconclusive = about -30% to -65%; inactive = above about -30%; also: % is scaled to controls: 0 for no effect and ±100 for the full control effect
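Six1/Eya2 binding was read as AlphaScreen signal after compounds were pinned into GST-Six1 plus His-tagged Eya2 (5X stock 250/500 nM) in pH 8.0 Tris/NaCl/TCEP buffer, beads added, then incubated 1 h, 37 C, dark.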
D2 PAM = human D2 receptor positive allosteric modulation. potentiation, % (no concentration beside the values). DiscoveRx D2 beta-arrestin cells, luminescence, 90 min; 100% = 57 uM dopamine signal. P14416. AID 624464. hit rate 0.23% among 360,000; active = potentiation of 50% or more; inconclusive = 30% to 50%; inactive = 30% or less;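 also: compound concentration not given in the record; tested on top of an EC20 dose of dopamine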
Target sequence (P14416 whole entry, looked up): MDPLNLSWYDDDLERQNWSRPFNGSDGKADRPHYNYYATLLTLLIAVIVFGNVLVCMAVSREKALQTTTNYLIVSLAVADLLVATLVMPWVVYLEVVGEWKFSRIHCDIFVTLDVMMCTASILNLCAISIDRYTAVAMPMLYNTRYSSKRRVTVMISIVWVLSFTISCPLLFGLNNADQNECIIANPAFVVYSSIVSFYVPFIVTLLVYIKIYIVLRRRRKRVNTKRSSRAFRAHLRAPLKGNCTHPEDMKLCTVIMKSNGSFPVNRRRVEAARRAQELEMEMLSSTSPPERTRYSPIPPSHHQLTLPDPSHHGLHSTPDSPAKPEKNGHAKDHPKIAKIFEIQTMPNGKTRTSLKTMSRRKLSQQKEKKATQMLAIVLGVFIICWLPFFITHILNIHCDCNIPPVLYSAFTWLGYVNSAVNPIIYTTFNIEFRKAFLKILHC
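PathHunter beta-arrestin assay in DiscoveRx D2 cells. Compounds were added with an EC20 of dopamine (50 nM final) for 90 min at 37 deg C. Luminescence was read 1 h after detection reagent, with 57 uM dopamine as the EC100 control.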
D2 ag = human D2 receptor agonism in beta-arrestin assay; P14416; DiscoveRx PathHunter D2 beta-arrestin, luminescence, 90 min; 100% = 57 uM dopamine signal; activation, % (no concentration beside the values); hit rate 0.084% among 360,000; in the data active = activation above about 40%; inconclusive = about 15% to 40%; inactive = below about 15%; also: compound concentration not given in the record; the text of the record calls up to 30% inactive
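DiscoveRx PathHunter D2 beta-arrestin cells (2,100/well) attached overnight, then compound-stimulated 90 min at 37 C in HBSS/10 mM HEPES/0.1% Tween-20 buffer; beta-galactosidase complementation read by luminescence after 1 h at ambient temperature. Dopamine 57 uM final (EC100) as control.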
TRPML1 ag = human mucolipin-1 channel agonism; activation, % (concentration not given with the values); AID 624414; hit rate 0.12% among 410,000; TRPML1-expressing cells, Ca2+ dye fluorescence, FDSS; host cell line not named in the record; reference of the full effect not given here; in the data active = activation above about 50%; inconclusive = about 30% to 50%; inactive = below about 30%; also: 0% is about no effect; the text of the record puts the active cut at 80%
Target sequence (Q9GZU1 whole entry, looked up): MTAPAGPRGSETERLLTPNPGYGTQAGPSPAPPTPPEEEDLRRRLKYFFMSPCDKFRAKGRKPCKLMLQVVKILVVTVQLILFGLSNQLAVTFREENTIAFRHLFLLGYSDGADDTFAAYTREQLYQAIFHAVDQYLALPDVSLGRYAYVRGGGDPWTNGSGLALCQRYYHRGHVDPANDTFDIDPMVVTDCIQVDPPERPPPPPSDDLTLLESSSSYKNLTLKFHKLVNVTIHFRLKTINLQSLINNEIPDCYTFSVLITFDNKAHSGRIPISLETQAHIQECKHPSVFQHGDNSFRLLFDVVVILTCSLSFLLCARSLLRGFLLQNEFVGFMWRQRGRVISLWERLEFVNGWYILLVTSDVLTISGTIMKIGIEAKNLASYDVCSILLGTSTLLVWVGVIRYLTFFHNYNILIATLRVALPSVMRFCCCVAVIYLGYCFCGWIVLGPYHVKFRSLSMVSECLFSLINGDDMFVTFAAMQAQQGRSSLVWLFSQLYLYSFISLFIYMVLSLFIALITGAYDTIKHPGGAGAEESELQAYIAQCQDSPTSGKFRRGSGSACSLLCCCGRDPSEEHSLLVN
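Cells: TRPML1-DL, 1X Tet inducer, ~16 h at 37 degrees C/5% CO2. Dye: ABD Ca8 no-wash + quencher, 45-90 min RT. Read: 10 s baseline, compound add, 110 s agonist phase; 54-4 EC80 (4uM final), 110 s antagonist phase.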
TRPML1 blocker = blocks the human TRPML1 channel | Q9GZU1 | TRPML1-inducible cells, Ca2+ dye fluorescence, FDSS; stronger effect = lower value; inhibition of EC80 agonist-evoked calcium signal | activity change, negative = inhibition, % (concentration not given with the values) | hit rate 0.02% among 390,000 | AID 624415; in the data active means activity change below about -50%; inconclusive means about -30% to -50%; inactive means above about -30%;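 also: stimulus is agonist 54-4 at its EC80 concentration; % is scaled to controls: 0 for no effect and ±100 for the full control effect; compound concentration not given in the record; the text of the record puts the active cut at -80%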
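Tet-induced TRPML1-DL cells loaded with Ca8 no-wash calcium dye were read kinetically on FDSS. Compound addition was followed by EC80 agonist 54-4 (4 uM final); inhibition was read over 110 s.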
PINK1 modulator = changes PINK1 expression. hit rate 0.2% among 410,000. AID 624263. PINK1 immunofluorescence, high-content cytometry, 24 h. Potency, µM (highest dose often 76.6 µM), inactives show at the top dose activation (PINK1 increase), most hits filed as activators; active = well fitted activation curve with a large enough effect; inconclusive = small, poorly fitted or top-dose-only effect; inactive = flat fitted curve, though single readings scatter; cell line not stated here;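 also: potency is read from the fitted curve at half-maximal effect; % of control where 0% means no effect; nearly all actives have a fitted effect of over 65% in size; a mitochondrial uncoupler was the plate control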
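PINK1 protein, normally rapidly degraded, was detected by immunofluorescence after 24 hour compound treatment of a stable cell line. Titration data (5 concentrations) came from laser-scanning cytometry, with CCCP-treated wells as controls.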
* marks the source's active call; other numbers are inactive results; ? = inconclusive; . = no result given; & = joins results of further samples; [ ] = dose if it differs, or a comment.

SMILES	Six1-Eya2 blk	D2 PAM	D2 ag	TRPML1 ag	TRPML1 blocker	PINK1 modulator
CCC1CCCCN1S(=O)(=O)c1cc(C(=O)Nc2ccc(C)c(F)c2)ccc1F (stereo not given)	.	.	.	1.2	23	4.7%
COC(=O)c1sccc1N(C)S(C)(=O)=O	2	-5	-0.1	-0.6	-17	0.6%
Cc1ccc(-n2c(=O)c3cccnc3n2CC(=O)Nc2ccc(Br)cc2)cc1C	.	.	.	0.3	35	2.4%
CCOc1ccc(/C=N/N(C)c2ccccc2)cc1OC	?	0	-2.4	1.1	40	1.5%
O=C(COC(=O)C1COc2ccccc2O1)c1ccc(F)cc1 (stereo not given)	-3	-5	-1.5	-0.1	1	-1.0%
COc1cc(NC(=O)c2cc(S(=O)(=O)N3CCCCC3)c[nH]2)cc(OC)c1	-5	0	-4.0	-0.1	9	0.9%
CCn1c(=O)c([N+](=O)[O-])c(NCCc2ccccc2)c2ccccc21	-27	-38	-3.9	-0.5	-2	-0.7%
CC1(c2ccccc2Br)NC(=O)N(CC(=O)NC2CCCCC2)C1=O (stereo not given)	9	0	-0.6	-0.5	3	1.6%
CC(C)/C=N/Nc1nc(-c2ccc(Br)cc2)cs1	7	-45	-12	0.0	3	?
C[C@@H]1CNC(=O)c2c(C(=O)N[C@H](C)c3ccccc3)ncn21	-5	1	-8.1	-0.6	-8	0.6%
CCc1c(O)nc2ccccn2c1=O	0	-1	-0.6	0.0	-21	-0.6%
CCOC(=O)c1cccc(NC(=O)CSc2nncn2-c2ccccn2)c1	-2	-3	-0.6	-0.3	-5	2.6%
CCCc1nc2c(=O)[nH]c3ccccc3c2o1	0	2	-4.2	1.7	-5	0.0%
CCOC(=O)c1nnc2c(-c3ccc(F)cc3)c(C)nn2c1N	.	.	.	-0.2	-7	0.6%
Cc1ccc(NC(=O)CC2Sc3ccccc3NC2=O)c(Br)c1 (stereo not given)	.	.	.	2.2	-10	2.4%

Record cards, as listed above. Order of screens: Six1-Eya2 blk, D2 PAM, D2 ag, TRPML1 ag, TRPML1 blocker, PINK1 modulator
COC(=O)c1sccc1N(C)S(C)(=O)=O across the screens: 2, -5, -0.1, -0.6, -17, 0.6%
CCOC(=O)c1nnc2c(-c3ccc(F)cc3)c(C)nn2c1N across the screens: ., ., ., -0.2, -7, 0.6%
Cc1ccc(NC(=O)CC2Sc3ccccc3NC2=O)c(Br)c1 (stereo not given) across the screens: ., ., ., 2.2, -10, 2.4%
CCc1c(O)nc2ccccn2c1=O across the screens: 0, -1, -0.6, 0.0, -21, -0.6%
CC(C)/C=N/Nc1nc(-c2ccc(Br)cc2)cs1 across the screens: 7, -45, -12, 0.0, 3, ?

Other compounds:
SMILES	Six1-Eya2 blk	D2 PAM	D2 ag	TRPML1 ag	TRPML1 blocker	PINK1 modulator
Cc1c(C(=O)c2ccc(Cl)cc2[N+](=O)[O-])c2ccccn2c1CCC#N	-24	8	0.9	1.4	23	4.1%
Cn1c(N)c(C(=O)CSc2nn(-c3ccc(F)cc3)c(=S)s2)c(=O)n(C)c1=O	-1	-2	0.1	-0.3	-8	1.7%
Cc1c(/C=N\NC(=O)c2c[nH]c3ccccc23)cnn1C	1	-9	-0.8	0.1	28	-1.0%
CCOC(=O)/C(N=Nc1ccc(C(=O)O)cc1[N+](=O)[O-])=C(\C)O	4	0	-4.2	-0.5	-18	3.2%
Cc1ccccc1C(=O)N1CCc2ccccc2C1	3	-2	-3.8	-0.4	8	3.0%[38.3 µM]
CCC(C)(C)NC(=O)C(c1ccc(C)cc1)N(CC1CCCO1)C(=O)CCC(=O)Nc1ccccn1 (stereo not given)	-1	-4	3.9	0.1	9	0.5%
COc1ccc(CCNC(=O)C(=O)NCC2OCCN2C(=O)c2ccc(Cl)cc2)cc1OC (stereo not given)	0	3	0.1	0.4	-13	0.2%
N/C(=N\OC(=O)COc1cc(Cl)c(Cl)cc1Cl)c1ccncc1	4	-2	-2.4	0.8	17	26%
O=C(COC(=O)c1c(F)cccc1F)Nc1ccccc1OC(F)F	3	4	-2.4	0.1	8	-0.1%
COCCCn1c(=O)c2sccc2n(Cc2cccc(C)c2)c1=O	-2	7	4.5	.	.	0.1%
O=C(/C=C/c1ccccc1)NCCS(=O)(=O)N1CCN(c2ccccc2)CC1	3	1	-2.5	0.4	0	0.4%
Cc1cccc[n+]1CCCCCCCCCC[n+]1ccccc1C	1	-4	1.9	0.2	12	2.4%
CCN(CC)S(=O)(=O)c1ccc(C(=O)NCC(c2cccs2)N2CCOCC2)cc1 (stereo not given)	1	-15	-0.4	0.1	3	0.3%[38.3 µM]
COCCCn1c(SCC(=O)NC2CCCCC2)nnc1-c1ccco1	8	-1	-1.7	0.5	18	-1.5%
CC(C)(C)NC(=O)C(Cc1ccccc1)NS(=O)(=O)c1cccc2nsnc12 (stereo not given)	10	-8	-1.3	0.5	-11	-1.0%
CC[C@]12c3[nH]c4cc(-c5ccco5)ccc4c3CCN1C(=O)[C@@H](CC(=O)NCc1ccco1)C[C@@H]2C(=O)N1CCN(C(=O)c2ccco2)CC1	-11	-10	-2.0	1.7	32	1.2%
COc1ccc(-c2nc(CNS(=O)(=O)c3cc(OC)ccc3OC)cs2)cc1	-2	-12	-4.6	0.7	10	-0.5%
CCNC(=O)c1c(NC(=O)Cc2coc3cc(C)cc(C)c23)sc2c1CCCC2	.	.	.	1.0	-4	1.5%
Cc1ccc(C(C)C)c(O)c1	8	-26	-3.9	.	.	-0.1%
COc1ccc2cnn(-c3ccc(C)cc3)c(=O)c2c1OC	-10	-7	-3.8	-0.3	25	-0.9%
CC(=O)c1ccc(N2CCN(C(=S)Nc3cccc(F)c3)CC2)cc1	1	6	2.3	1.6	19	9.0%
CC(C)c1ccc(NC(=O)C(Cc2ccccc2)n2cccc2)cc1 (stereo not given)	.	.	.	2.3	0	11%
COc1ccc2nc(C)[nH]c(=O)c2c1	-5	-9	-2.9	-1.1	4	-0.6%
COCCn1c(=NC(=O)c2ccc(S(=O)(=O)N3CCc4ccccc4C3)cc2)sc2cc(S(N)(=O)=O)ccc21	2	-5	-1.4	1.2	11	2.5%
C=CCc1cc(/C=C2/NC(=O)NC2=O)cc(OCC)c1O	-10	-3	6.7	-0.6	-5	0.5%
COc1cccc(N2CCN(C3OC(=O)c4ccccc43)CC2)c1 (stereo not given)	2	-1	0.2	-0.9	9	4.0%
O=C(Nc1ncc(Cc2ccccc2Cl)s1)c1ccc2c(c1)CC(c1ccccc1)OC2=O (stereo not given)	.	.	.	0.9	-8	0.3%
COc1ccc2nc(Nc3nc4cc5c(cc4s3)OCCO5)sc2c1	2	0	-2.0	-0.6	-1	1.7%
COc1ccc(C(=O)NCc2nnc(SCC(=O)N3CCc4ccccc43)o2)cc1OC	-2	-6	-4.7	-1.2	7	-1.8%
COc1ccc(Cn2c(SCc3ccc(C(=O)NCc4cccs4)cc3)nc3ccncc32)cc1	.	.	.	0.2	-1	1.3%
Cc1ccc(C(=O)N2CCC(C(=O)Nc3cccc([N+](=O)[O-])c3)CC2)cc1	-6	-15	-3.0	-0.1	1	0.1%
CC(C)NC(=O)c1onc(CSc2ccccc2)c1C(=O)O	23	1	5.6	-0.4	-5	-0.1%
COC(=O)C1CCN(C(=O)Cc2ccc(C)cc2)CC1	1	1	0.7	-0.6	-8	-0.3%
COc1ccccc1N1CCN(C(=O)c2cccc(N3C(=O)NC4CC3(C)Oc3c(OC)cccc34)c2)CC1 (stereo not given)	2	-11	-5.5	1.3	12	-0.7%
COc1ccc(F)cc1S(=O)(=O)NCC(c1ccco1)S(=O)(=O)c1ccc(F)cc1 (stereo not given)	.	.	.	2.2	11	-0.2%
Cc1cc(C)n2nc(SCCCC(=O)c3ccc(F)cc3)nc2n1	-22	-7	-0.1	0.2	-12	2.7%
COc1ccc(Cl)cc1C(=O)N/N=C/c1ccc(N2CCOCC2)cc1	0	-8	-2.9	-1.2	30	7.6%
COc1ccc(Cl)cc1NC(=O)CSc1nnc(COc2ccccc2)n1N	-1	-44	-5.4	0.1	-12	0.1%
CCCCC1=CC2=CC(=O)C(C)(OC(=O)CC)C(=O)C2=CN1C1CCCCC1 (stereo not given)	-4	14	3.7	-0.1	-9	2.4%
O=C(CSc1ccc2c(c1)OCCO2)NCc1ccccc1	-7	1	0.4	-0.2	1	0.0%
CCOc1ccccc1NC(=O)N1CCC2(CC1)Oc1ccccc1C(=O)N2Cc1ccccc1F	.	.	.	1.3	14	1.4%
Cc1nn(CC(C)C)c(Cl)c1C(=O)NCC1CCCO1 (stereo not given)	-3	5	0.3	-0.8	5	2.4%
C/C(=N\NC(=O)c1ccccc1)C1C2C=CC(C2)C1(C)C (stereo not given)	0	-6	2.9	-0.4	0	2.3%
OC1(C#CCN2CCCC2)c2ccccc2-c2ccccc21	7	-22	2.3	0.6	-22	-0.5%
COc1cc(-c2noc(CSc3nc(-c4ccc(F)cc4)cc(=O)[nH]3)n2)cc(OC)c1OC	.	.	.	0.0	6	1.1%
CCOc1ccc(C(CC(=O)O)NC(=O)C2c3ccccc3Oc3ccccc32)cc1 (stereo not given)	-6	-7	-3.4	0.0	-10	1.3%
S=c1nc(-c2csc3c2CCCC3)[nH][nH]1	-8	-14	-6.2	0.0	3	3.4%
Cc1ccc(-c2noc(CCC(=O)NCCCN3CCN(c4cccc(Cl)c4)CC3)n2)cc1	-12	-44	-4.9&-5.0	0.3	59	2.6%
CCOC(=O)Cn1c(=N)n(Cc2ccc(C(C)(C)C)cc2)c2ccccc21	.	.	.	2.0	5	0.9%
O=C1OC[C@H]2CCCN2C(=O)[C@@H](CC(=O)N(CCO)Cc2ccccc2)C/C=C\CC[C@H]1Cc1ccc(F)cc1	7	-15	-0.3	0.1	11	1.1%
CC1(C(=O)NCc2cccc(Cl)c2)Cc2c(-c3ccc(C(N)=O)cc3)ccnc2O1 (stereo not given)	-2	0	2.5	-0.8	.	4.7%
O=C(CCCc1ccccc1)Nc1ccnn1C1CCN(Cc2ccc(Cl)cc2)CC1	-4	-20	-1.2	-0.1	2	1.0%
Cc1nn(Cc2ccc(C(=O)n3cccn3)o2)c(C)c1Br	-2	-6	-3.5	-0.5	18	-0.4%
CCn1c(=O)cc(OCC(=O)N(C)c2ccccc2F)c2ccccc21	-3	4	-5.3	1.0	9	1.6%
O=C(CN1C(=O)c2ccccc2S1(=O)=O)c1ccccc1F	0	5	-0.1	-0.1	13	-0.1%
CCC(=O)c1ccc(OCC(O)CN2CCc3ccccc3C2)cc1 (stereo not given)	-1	-6	3.9	-1.1	-8	0.1%
Cc1nn(-c2ccc(N3CCOCC3)nn2)c(C)c1CCC(=O)NCc1ccccc1F	1	-5	-0.3	0.3&0.1	0&-12	0.3%&-0.3%
Cc1ccc2ccccc2c1C(O)c1ncc(-c2ccc(C(F)(F)F)cc2)[nH]1 (stereo not given)	-10	-5	-1.0	1.4	26	?
CCCCN(CCCC)C(=O)CN(C)S(=O)(=O)c1ccc2c(c1)n(C)c(=O)c(=O)n2C	1	-1	-0.8	-0.1	20	0.7%[38.3 µM]

Screens: PubChem, National Center for Advancing Translational Sciences (NCATS)
